Source: PubChem BioAssay
LANA-H2B inh = blocks KSHV LANA binding to histone H2A/H2B. cell-free LANA-H2A/H2B peptide, fluorescence polarization. inhibition, % (test concentration not listed). 320,000 compounds, 0.6% hits; in the data active = inhibition mostly above about 10%, no sharp cut-off; inactive = mostly below about 6.7%;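 also: stock transfer was 7.5 nL into about 10 µL; 0% = median of vehicle wells and 100% = median of positive control wells; one replicate is shown; the record names a cut of 25% in any replicate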
UCH37 inh = inhibitors of human deubiquitinating enzyme UCH37; Q9Y5K5; purified proteasome/UCH37, Ub-AMC cleavage fluorescence; inhibition, % (no concentration beside the values); 330,000 compounds, 0.33% hits; AID 588478;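 active = mean of two replicates above 20%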;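 also: 0% = compound-free wells with enzyme and 100% = wells lacking proteasome; stock transfer was 100 nL into about 20 µL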
Target sequence (Q9Y5K5 whole entry, looked up): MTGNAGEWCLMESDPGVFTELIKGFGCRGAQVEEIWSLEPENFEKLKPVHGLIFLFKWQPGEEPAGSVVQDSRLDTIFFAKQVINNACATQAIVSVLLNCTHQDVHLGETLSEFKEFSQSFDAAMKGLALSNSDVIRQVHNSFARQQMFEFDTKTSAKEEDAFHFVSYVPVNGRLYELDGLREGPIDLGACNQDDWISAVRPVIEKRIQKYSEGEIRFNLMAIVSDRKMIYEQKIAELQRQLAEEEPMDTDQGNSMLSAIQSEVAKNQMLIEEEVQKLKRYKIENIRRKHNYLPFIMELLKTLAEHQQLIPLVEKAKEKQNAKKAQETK
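system = Proteasome-associated human UCH37 deubiquitinase | amount = 0.15 nM proteasome as dispensed | medium = pH 7.4 Tris-HCl (50 mM) with ovalbumin, ATP-MgCl2, DTT | incubation = 30 min preincubation with enzyme, 25 min cleavage at room temperature | detection = AMC fluorescence 355/460 nm | read-out basis = percent inhibition | controls = no-proteasome and no-compound wells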
ALR inh = inhibitors of human sulfhydryl oxidase ALR | P55789 | purified ALR, DTT oxidation, H2O2 HRP-luminol luminescence | inhibition, % (no concentration beside the values) | 290,000 compounds, 3.8% hits;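 active = mean and each replicate at 75% or more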;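 also: stock transfer was 7.5 nL into about 7.5 µL; 0% = neutral wells and 100% = wells with inactivated enzyme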
E coli growth = inhibitors of Escherichia coli growth | OD600 absorbance (concentration not given with the values) | OD600, 23 h; active compounds read low | 330,000 compounds, 0.21% hits | AID 1053175;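 active = OD600 absorbance below the run mean of sample wells minus 3.6 SD, in any replicate, cut at about 0.56 in these data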;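 also: stock transfer was 300 nL into about 60 µL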
HNF4A DNA FP = change in binding of human HNF4 alpha to DNA; P41235; HNF4a-FITC DNA binding, fluorescence polarization, 1 h; activity change, % at 10 µM; 360,000 compounds, 0.3% hits; in the data active = activity change above about 30%, passing the limit was not always enough;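 also: controls were the assay level and a saturating level of protein; the project sought stronger binding though the title names inhibitors; some compounds called inactive have numbers as strong as hits; positive values seem to mean higher polarization but the record does not say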
Target sequence (P41235 whole entry, looked up): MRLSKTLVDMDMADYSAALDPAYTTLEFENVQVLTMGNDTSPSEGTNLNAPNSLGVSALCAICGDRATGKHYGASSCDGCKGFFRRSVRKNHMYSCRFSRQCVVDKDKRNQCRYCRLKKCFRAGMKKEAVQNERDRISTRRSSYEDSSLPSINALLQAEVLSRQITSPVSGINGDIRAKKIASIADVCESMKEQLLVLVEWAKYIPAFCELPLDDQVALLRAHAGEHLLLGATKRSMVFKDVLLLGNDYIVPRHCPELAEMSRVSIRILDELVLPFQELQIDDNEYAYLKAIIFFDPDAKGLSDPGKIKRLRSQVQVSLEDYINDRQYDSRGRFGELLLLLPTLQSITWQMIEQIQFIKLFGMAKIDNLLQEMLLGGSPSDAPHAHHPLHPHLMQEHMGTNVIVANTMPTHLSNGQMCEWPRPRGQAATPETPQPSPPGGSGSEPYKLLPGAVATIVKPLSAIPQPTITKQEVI
FGF22 binding = shifts melting point of recombinant human FGF22; Q9HCT0; recombinant FGF22 thermal shift, SYPRO orange fluorescence; percent of sucrose octasulfate shift, DMSO zero; calls only at 9.99 µM; 340,000 compounds, 1.5% hits;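 active = melting point raised past a set limit in the mean and every replicate; three in four hits are not shown here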
Target sequence (Q9HCT0 whole entry, looked up): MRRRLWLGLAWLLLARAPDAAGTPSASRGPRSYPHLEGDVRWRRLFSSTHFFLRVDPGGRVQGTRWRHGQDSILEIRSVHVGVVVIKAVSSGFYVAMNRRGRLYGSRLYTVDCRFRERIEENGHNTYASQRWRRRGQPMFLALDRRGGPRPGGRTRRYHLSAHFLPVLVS
B2AR ag = activates human beta-2 adrenergic receptor causing internalization. P07550. Am2.2-beta2AR cells, FAP receptor internalization, flow cytometry; reference of the scale not given here. response, % (concentration not given with the values). 340,000 compounds, 0.43% hits;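 active = response above a set limit, near 3 SD of response in nonfluorescent compounds, cut at about 42% in these data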;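 also: stock transfer was 100 nL into about 11 µL; a reference agonist was the positive control; negative values mostly stem from fluorescent compounds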
Active calls of the source: *; i = inactive; · = not tested or not shown; & = joins results of further samples.

structure,LANA-H2B inh,UCH37 inh,ALR inh,E coli growth,HNF4A DNA FP,FGF22 binding,B2AR ag
Cc1ccc(C(=O)Nc2cccc(C(F)(F)F)c2)cc1NC(=O)c1nccn1C,2.6,1.5,4,0.67,0.5&1.4,i,9
O[C@@H]1CN(C2CCN(Cc3ccccc3)CC2)CC[C@H]1N1CCCCCC1,·,·,·,·,12,i,22
CCOC(=O)c1ccc(NC(=O)CCS(=O)(=O)Cc2ccccc2)cc1,1.8,0.9,3,0.72,0.5,i,-6
O=C(Nc1ccc(NC(=O)c2cccs2)cc1)c1ccc2ccccc2c1,7.1,-18,·,0.73,-0.2,i,0
CC(CCc1ccccc1)NC(=O)c1ccc(NC(=O)c2ccccc2)cc1 (stereo unspecified),5.5,0.8,-16,0.77,-0.1,i,-3
Cc1cc(NS(=O)(=O)c2ccc(NC(=O)CN3C(=O)NC(C)(c4ccccc4)C3=O)cc2)nc(C)n1 (stereo unspecified),3.3,4.3,-3,0.69,0.8,i,-10
CSc1nc2nc(C(F)(F)F)cc(-c3ccccc3)n2n1,1.5,-162,1,0.71,1.9,·,-6
Cc1cccc(CCNC(=O)Cn2ncc3c([nH]c4ccccc43)c2=O)c1,1.0,-1.9,2,0.68,3.4,·,-4
COc1ccc2nc(NC(=O)C3COc4ccccc4O3)sc2c1 (stereo unspecified),-0.5,4.9,·,0.72,3.3,i,1
COc1cc(OC)cc(-c2c(C#Cc3ccsc3)c3cc(-c4ccc5[nH]ccc5c4)ccc3n2C)c1,3.2,-16,-4,0.74,9.8,i,-2
CN(Cc1cccnc1)Cc1cn(Cc2ccccc2)nc1-c1ccc2c(c1)OCO2,0.0,1.4,-3,0.7,0.2,i,24
COC(=O)C12CC3CC(C1)CC(n1cnc(Cl)n1)(C3)C2,6.0,2.4,·,0.72,3.8,·,5
COc1cc(CNCCc2ccc(S(N)(=O)=O)cc2)ccc1OCC(=O)N1CCCCC1,-2.2,0.6,-4,0.61,-0.1,·,2
CC(=O)Nc1ccc(S(=O)(=O)N(C)CC(=O)OCC(=O)c2ccc[nH]2)cc1,-1.5,0.7,3,0.71,0.5,i,-4
O=C(CN1CCN(S(=O)(=O)c2ccc(Cl)cc2)CC1)NC1CCCC1,0.0,1.6,-5,0.67,2.0,i,-1

structure,LANA-H2B inh,UCH37 inh,ALR inh,E coli growth,HNF4A DNA FP,FGF22 binding,B2AR ag
COc1ccc(/C=C2\SC(=S)N(CCC(=O)Nc3ccccc3C(=O)O)C2=O)cc1,-3.1,7.9,-4,0.68,-4.5,i,-1
COC(=O)c1sccc1NC(=O)COc1ccc(Cl)cc1,·,-2.5,·,0.65,5.0,i,10
COc1ccccc1C(=O)NCC(=O)OCc1csc(-c2ccccc2)n1,-5.9,2.9,-5,0.63,-0.1,·,2
COc1cccc(NC(=O)Nc2cc(NC(=O)Nc3cccc(OC)c3)c(C)nc2C)c1,-2.3,3.0,-4,0.63,-0.1,·,-6
N#Cc1cccc(S(=O)(=O)Nc2c(NC3CCCCC3)c3ccccc3oc2=O)c1,·,4.9,98*,0.71,-0.1,·,2
CC(=O)N1c2ccc(S(=O)(=O)NCCC(=O)NC3CCC(C)CC3)cc2CC1C (stereo unspecified),3.6,6.4,0,0.68,0.5,i,-24
CCOc1ccc(C2C(C#N)=C(N)N(N(C)C)C3=C2C(=O)CC(C)(C)C3)cc1 (stereo unspecified),2.5,-18,6,0.68,0.6,i,3
COc1ccc(Cn2c(=O)c3c(nc(NCCO)n3C)n(C)c2=O)cc1,-2.3,-1.1,4,·,-1.3,·,-2
CC(C)(C)OC(=O)N(CCc1ccccc1)Cc1ccc(OCc2cccc(NC(=O)C3CCCC3)c2)cc1,·,·,·,·,-2.6,i,10
COc1ccc(CCNC(=O)COc2nsnc2N2CCOCC2)cc1OC,-0.7,0.9,-8,0.73,-1.1,·,1
COc1ccc(-c2cc(C(F)(F)F)n3nc(C(=O)N4CCOCC4)nc3n2)cc1,·,-23,·,0.72,-2.6,·,-1
COC(=O)[C@H](C)NC(=O)N1CCC(Cc2ccccc2)CC1,0.4,2.0,-11,0.68,1.3,i,6
COc1ccccc1NC(=O)CSc1nc(O)cc(=O)n1C,-4.6,10,99*,0.66,3.4,·,-2
CC1CN(C)C(C)CC1OC(=O)C(c1ccccc1)c1ccccc1 (stereo unspecified),-7.1,3.1,-4,0.65,0.4,i,6
CN(C(=O)COC(=O)C1CCN(S(=O)(=O)c2ccc3c(c2)OCCO3)CC1)c1ccccc1,3.7,1.8,-10,0.73,0.9,i,8

structure,LANA-H2B inh,UCH37 inh,ALR inh,E coli growth,HNF4A DNA FP,FGF22 binding,B2AR ag
COc1ccc(N2CCN(C3CCCN(Cc4ccc(F)cc4)C3)CC2)cc1 (stereo unspecified),-2.0,1.4,·,0.68,-2.6,i,-7
COc1ccc(/C=N/NC(=O)Cn2c(Cc3ccc(OC)c(OC)c3)nc3ccccc32)cc1,-1.0,·,-21,·,-4.9,·,8
COCC(=O)N(C)C[C@H]1N[C@@](Cc2ccccc2)(C(=O)OC)[C@H]2C(=O)N(C)C(=O)[C@@H]12,·,1.1,1,0.7,-3.1,i,-6
COc1ccc(-c2csc(N3CCN(Cc4ccc5c(c4)OCO5)CC3)n2)cc1,0.6,0.7,-7,0.73,-1.0,i,5
CCC(C)NC(=O)C1CCN(S(=O)(=O)c2ccc3nc4c(c(C(=O)O)c3c2)CCCCC4)CC1 (stereo unspecified),4.2,3.5,11,0.7,-0.8,i,9
O=C(N1CCN(c2ccccc2F)CC1)C1(S(=O)(=O)c2ccc(Cl)cc2)CC1,3.3,5.7,-17,0.67,11,i,-4
COc1ccc(C(CNC(=O)CCC(=O)c2ccc(C)s2)N2CCOCC2)cc1 (stereo unspecified),3.8,2.6,-3,0.67,-2.6,i,-2
COc1cccc2sc(N(CCN(C)C)C(=O)/C=C/c3cccs3)nc12,8.9,7.8,-3,0.63,0.0,i,6
CC(C)CN(C(=O)COC(=O)c1ccc(Br)o1)c1c(N)n(Cc2ccccc2)c(=O)[nH]c1=O,5.2,1.0,-3,0.63,0.4,i,-4
CCN1C(=O)N/C(=C/c2ccc(C)o2)C1=O,-1.5,11,·,0.68,-1.6,i,-6
CCOC(=O)c1c(NC(=O)CSc2nc3cc(Cl)ccc3s2)sc(C(C)=O)c1C,9.1,2.7,16,0.66,·,i,·
CC1CCN(C(=O)CN2C(=O)C(=O)c3ccccc32)CC1,-3.1,3.5,-2,0.71,-1.1,·,3
CC(C)(C)OC(=O)NCCCC[C@@H](C(=O)NCCCCCCCCCCC(=O)N1CCN(C(=O)OC(C)(C)C)CC1)n1cc(CCCC(=O)O)nn1,-0.3,3.6,-9,·,-3.6,i,-2
CCN(Cc1ccccc1)C(=O)CC1Oc2ccccc2NC1=O (stereo unspecified),3.9,5.8,24,0.75,1.0,i,-4
CC(C)[C@H](NS(=O)(=O)c1ccccc1)C(=O)OCC(=O)NCc1ccc2c(c1)OCO2,0.8,2.0,-1,0.66,2.7,i,-3

structure,LANA-H2B inh,UCH37 inh,ALR inh,E coli growth,HNF4A DNA FP,FGF22 binding,B2AR ag
CCOCCCN(C(=O)Cn1nnc(-c2ccc(C)o2)n1)C(C(=O)NC1CCCC1)c1ccc(C)o1 (stereo unspecified),·,6.0,·,0.72,-0.1,i,-1
CCNC(=O)NC(=O)C(C)Sc1ncc(C(F)(F)F)cc1Cl (stereo unspecified),-7.0,1.3,-21,0.71,2.1,·,-10
CSc1ncc(Cl)c(C(=O)Nc2ccc(NC(C)=O)cc2)n1,2.3,6.0,-7,0.66,0.3,i,1
Cc1nc2nc(CSc3nc4ccccc4s3)cc(=O)n2[nH]1,-5.7,3.0,·,0.71,0.7,·,5
Cc1cnc(NC(=O)CCCSc2nc3ccccc3s2)s1,-0.2,3.3,-3,0.68,2.1,·,-3
CCOC(=O)NNc1ccc2nonc2c1[N+](=O)[O-],8.4,·,-21,·,·,·,3
Cc1cc(C)n(C(N)=NC(=O)c2ccc([N+](=O)[O-])cc2)n1,2.7,2.5,-8,0.68,0.0,i,4
COc1ccc(/C=C/c2cc(O)cc(OC3OC(CO)C(O)C(O)C3O)c2)cc1 (stereo unspecified),·,·,·,·,5.2,i,-1
COC(=O)Nc1ccc(SCC(=O)c2ccc(Cl)cc2)cc1,3.1,11,·,0.67,2.6,i,-1
Cc1ccc(NC(=O)COC(=O)c2ccc([N+](=O)[O-])s2)c(C)c1,-5.9,31*,-18,0.7,-0.1,i,-2
Cn1c(SCC(=O)N2CCCC2)nnc1-c1cnccn1,1.5,1.3,2,0.7,-2.6,i,-8
COCc1nc2oc3ccc(C)cc3c(=O)c2cc1C(=O)OC,5.6,-94,-8,0.71,7.3,i,-20
Cc1cccc(OCC(=O)Nc2ccc3c(c2)C(=O)NC3=O)c1,-1.1,3.4,-3,0.68,1.0,i,8
COC(C[C@H]1O[C@H]1[C@@H](O)[C@H](C)OCc1ccccc1)OC,·,0.0,·,·,-2.1,i,2
CCN(c1cccc(C)c1)S(=O)(=O)c1ccc(-c2cc(C)no2)s1,-1.2,7.3,4,0.69,1.3,i,20

structure,LANA-H2B inh,UCH37 inh,ALR inh,E coli growth,HNF4A DNA FP,FGF22 binding,B2AR ag
Cn1cc(Cl)c(C(=O)N/N=C/c2ccc(OS(=O)(=O)c3ccccc3)cc2)n1,-2.0,·,-19,·,-2.0,·,2
O=C(CCCn1c(=O)oc2ccccc21)N1CCN(c2ccc(F)cc2)CC1,-0.5,6.7,40,0.71,-4.7,i,-6
COCCCNC(=O)C1CCCN(S(=O)(=O)c2cccc3nsnc23)C1 (stereo unspecified),-8.3,-0.8,-10,0.67,1.4,i,1
Cc1cccc(C)c1NC(=O)CN1CCc2ccccc2C1,2.3,·,·,·,-1.9,i,-1
O=C(CN1C(=O)S/C(=C\c2ccccc2F)C1=O)NCCCn1ccnc1,1.9,11,-10,0.7,-0.7,i,-7
CC(C)(C)NC(=O)C(c1ccncc1)N(C(=O)c1csnn1)C1CC1 (stereo unspecified),3.1,4.7,·,0.67,1.7,·,-5
COc1cccc(/C=C(\CC(=O)O)c2nc3ccccc3s2)c1,-2.9,-0.9,·,0.66,-1.7,i,6
CCCCOc1ccc(NC2=NC3(CCCC3)N=C(N)N2)cc1,-3.2,3.3,-24,0.6,2.0,·,-19
Fc1ccc(SCCc2ccccn2)cc1,0.7&-3.6,0.8&4.6,-2&-11,0.68&0.69,0.4&1.5,i,-12&0
CCCN1C(=O)/C(=C/C=C2\N(CC)c3ccccc3C2(C)C)SC1=S,-0.9,8.9,-2,0.77,-52,·,i
Cc1ccc(NC(=O)CN(C)C(=S)NC2CC2)cc1,-5.2,4.3,·,0.73,3.8,i,0
CC(C)C[C@H]1CNC(=S)N1CC1CCCN1C[C@H](Cc1ccc(O)cc1)N1C[C@H](Cc2ccccc2)N(CC2CCCCCC2)C1=S (stereo partly specified),·,·,·,·,2.2,i,-9
CCOC(=O)C1CCCN(S(=O)(=O)c2ccc3c(c2)C(C)(C)C(=O)N3C)C1 (stereo unspecified),1.5,5.9,-1,0.76,4.7,i,-2
CC(=O)N1c2ccc(S(=O)(=O)N3CCC(C(=O)Nc4cccc(C(F)(F)F)c4)CC3)cc2CC1C (stereo unspecified),-1.5,1.5,-1,0.64,2.4,i,4
Cc1ccc(O)c(NC(=O)C2CC(c3c(F)cccc3Cl)=NO2)c1 (stereo unspecified),2.2,-0.3,1,0.75,2.2,·,-1
COc1ccc(-c2cn(/N=C/c3ccc(Cl)cc3Cl)c(N)n2)cc1,1.3,·,-3,·,3.7,·,6
CCN1C(=O)[C@@H]2[C@@H](c3ccc(-c4ccc(F)cc4)c(OC)c3)N3CCCC[C@@]3(C(=O)OC)[C@@H]2C1=O,-1.4,0.8,-7,·,9.5,i,13

The list is partial; rates above refer to the full screens.
